Source: PubChem BioAssay
eIF4H inh: inhibitors of RNA binding by human eIF4H | Q15056 | eIF4H fluorescence polarization binding assay | inhibition, % at 35 µM | 290,000 compounds, 0.94% hits;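 active = 50% or more with normal probe brightness, or confirmed in later tests; inconclusive = above 50% with abnormal brightness, or retests that disagree; inactive = below 50% or failed in later tests; about a fifth of its hits are not listed in these tables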;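 also: calls also rest on retests at 20 µM and on dose response follow-up; 0% = protein and probe with vehicle and 100% = probe without protein; strong numbers were not always called active; many hits fall short of the cut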
Rce1 inhib: blocks yeast Ras-converting enzyme. Q03530. yeast membranes, quenched prenylated peptide cleavage fluorescence. calls only. 290,000 compounds, 0.27% hits. AID 2563;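 active = fall in fluorescence gain of 50% or more versus controls, with final raw signal at or below 3038400; inconclusive = same 50% fall but final raw signal above 3038400; inactive = fall in fluorescence gain under 50%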;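 also: plate controls were neutral control wells for no effect and wells lacking membranes for full effect; tested at 10 µM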
Yeast UUG start: yeast start codon fidelity modulation | S. cerevisiae UUG-firefly luciferase reporter, luminescence/redox ratio | activity score, % at 18.7 µM | 350,000 compounds, 0.13% hits | AID 602363;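 active = replicate mean at a twofold rise or more, about +100% in these data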;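 also: firefly luciferase made from a UUG start codon reports start codon fidelity; reporter light over untreated wells divided by growth signal over untreated wells; some hits fall short of that in this replicate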
Env fusion inh: blocks HIV Env-driven cell-cell fusion; HeLa-JRFL Env/CEM21 cell fusion, luciferase; inhibition, % at 12.3 µM; 360,000 compounds, 1.1% hits; AID 651610;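 active = mean replicate inhibition score of at least 50 and every replicate individually at or above 50; inconclusive = only one of the two criteria met; inactive = mean below 50 and not all replicates reaching 50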;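 also: 0% = plate neutral controls and 100% = maraviroc near 300 nM; one replicate is shown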
MT1-MMP act inh: blocks activation of human MT1-MMP; 360,000 compounds, 0.061% hits; AID 651647; GFP/RFP ratio change, % at 20 µM; HT1080 RFP-PRO-GFP cells, GFP/RFP ratio fluorescence, overnight; percent of plate control window, DMSO zero;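 active = GFP/RFP ratio change of at least 30% with cell ATP level not reduced by more than half and red fluorescence within 50% of control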; also: strong numbers were not always called active
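Assay system – RFP-PRO-GFP reporter HT1080 cells · Compound dosing – single dose of 20 µM compound, 1% DMSO final · Incubation – overnight compound exposure at 37 °C · Measure – GFP/RFP fluorescence ratio · Benchmarks – DMSO wells and RFP-L50D-GFP cells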
CSC inhib: cancer stem cell inhibition | cancer stem cell-like cells viability, luminescence | inhibition, % at 7.5 µM | 300,000 compounds, 1.1% hits;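 active = mean at 75% or more and at least half the replicates too; inconclusive = mean and replicates disagree; tested in HMLE shEcad cells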;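 also: 0% = median of negative and 100% = median of positive control wells; the first replicate is given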
PABP FP inh: blocks human PABP binding to poly(A) RNA; P11940; fluorescence polarization; inhibition, % at 35 µM; 290,000 compounds, 1% hits; AID 2014;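 active = 50% or more with normal probe brightness, or confirmed in later tests; inconclusive = above 50% with abnormal brightness, or retests that disagree; inactive = below 50% or failed in later tests; about a fifth of its hits are not listed in these tables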;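 also: calls also rest on retests at 20 µM and on dose response follow-up; controls were probe without protein and protein plus probe with vehicle; some compounds called inactive have numbers as strong as hits; many hits fall short of the cut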
Target sequence (P11940 whole entry, looked up): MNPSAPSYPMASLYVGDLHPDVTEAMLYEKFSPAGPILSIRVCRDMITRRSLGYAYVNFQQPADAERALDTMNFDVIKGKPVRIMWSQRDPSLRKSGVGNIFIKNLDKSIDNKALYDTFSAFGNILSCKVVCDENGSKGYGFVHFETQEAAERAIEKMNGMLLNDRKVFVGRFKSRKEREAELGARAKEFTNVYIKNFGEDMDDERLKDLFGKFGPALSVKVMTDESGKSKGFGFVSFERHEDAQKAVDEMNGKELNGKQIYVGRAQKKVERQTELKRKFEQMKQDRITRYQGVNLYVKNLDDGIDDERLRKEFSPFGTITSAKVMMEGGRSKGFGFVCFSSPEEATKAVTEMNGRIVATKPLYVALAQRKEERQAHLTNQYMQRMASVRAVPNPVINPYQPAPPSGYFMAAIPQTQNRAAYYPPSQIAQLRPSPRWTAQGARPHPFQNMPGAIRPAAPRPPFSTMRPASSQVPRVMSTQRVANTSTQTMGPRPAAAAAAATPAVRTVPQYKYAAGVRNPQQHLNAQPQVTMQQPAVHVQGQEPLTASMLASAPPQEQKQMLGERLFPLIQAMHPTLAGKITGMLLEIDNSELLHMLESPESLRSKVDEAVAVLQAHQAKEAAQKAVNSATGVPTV
eIF4H inh retest: second read-out of eIF4H inh, no call of its own (marks repeat the call); inhibition, %; compound at 20 µM; confirmation average;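 mean of two retest wells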
PABP FP inh retest: recorded beside PABP FP inh, whose call it bears; inhibition, %; compound at 20 µM; confirmation repeats;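 mean of two retest wells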
MT1-MMP act inh RFP: second read-out of MT1-MMP act inh, no call of its own (marks repeat the call); RFP signal change, %; measured here: RFP expression control read;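 0 = vehicle wells; hits needed this value within 50% of zero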
Active calls of the source: *; i = inactive; u = inconclusive; x = no result given; & = joins results of further samples.

SMILES	eIF4H inh	Rce1 inhib	Yeast UUG start	Env fusion inh	MT1-MMP act inh	MT1-MMP act inh RFP	CSC inhib	PABP FP inh	others
COc1cccc(-c2ccc(SCC(=O)NCCc3ccccc3)nn2)c1	-11.6	i	x	-9.3	-0.8	-0.5	-4.2	-7.1
Cc1ccc(C(=O)O/N=C(\N)Cc2ccc([N+](=O)[O-])cc2)c(Cl)c1	-1.4	i	x	-26.9	1.8	-3.0	-0.5	-2.3
O=C(NC1CCc2ccccc21)C12CN(Cc3ccccc3)CC1C(c1cccc([N+](=O)[O-])c1)=NO2 (stereo not given)	3.3	i	-19.5	13.6	-10.4	-11.9	11.6	14.3
Cc1ccc(N(CC(=O)NCC2CCCO2)C(=O)CCC(=O)Nc2cc(C)on2)cc1 (stereo not given)	-16.2	i	-5.8	-16.4	0.0	2.3	-31.1	-1.9
C/C=C/Cn1cccc(C(=O)Nc2ccc(OC)cc2)c1=O	-0.4	i	x	13.9	-1.1	1.1	3.4	0.5
COc1ccc(C)cc1NC(=O)c1ccccc1NS(=O)(=O)c1cccc2cccnc12	-4.0	i	-11.4	1.7	0.8	-0.9	0.7	-0.3
O=C(c1ccccc1)N(Cc1cccs1)C1CCS(=O)(=O)C1 (stereo not given)	-7.2	i	9.5	x	0.3	3.9	-9.5	1.5
CC(C)COC(=O)N(C)c1ccc(C(O)(C(F)(F)F)C(F)(F)F)cc1	-6.0	i	-5.6	x	8.1	-13.9	22.0	-15.2
O=C(c1ccc(S(=O)(=O)Cc2ccccc2F)c([N+](=O)[O-])c1)N1CCCCCC1	0.9	i	-34.1	25.5	-2.6	-14.5	10.7	16.4
CC1CN(C(=O)C2CC2)C(C)CN1C(=O)C1CC1 (stereo not given)	-9.1	i	4.5	-10.1	9.3	10.6	-10.3	-3.4
CC(=O)Nc1ccc2c(COC(=O)CC3Sc4ccccc4NC3=O)cc(=O)oc2c1 (stereo not given)	u	i	x	3.7	2.9	7.1	-7.9	87.2*	PABP FP inh retest=83.5*
CCNC(=O)C(=O)NCC1CCCN1S(=O)(=O)c1cccs1 (stereo not given)	x	i	-3.2	-2.8	-0.2	1.7	-4.9	x

The last 2 entries of the section above open the next one.
SMILES	eIF4H inh	Rce1 inhib	Yeast UUG start	Env fusion inh	MT1-MMP act inh	MT1-MMP act inh RFP	CSC inhib	PABP FP inh	others
CC(=O)Nc1ccc2c(COC(=O)CC3Sc4ccccc4NC3=O)cc(=O)oc2c1 (stereo not given)	u	i	x	3.7	2.9	7.1	-7.9	87.2*	PABP FP inh retest=83.5*
CCNC(=O)C(=O)NCC1CCCN1S(=O)(=O)c1cccs1 (stereo not given)	x	i	-3.2	-2.8	-0.2	1.7	-4.9	x
CC(=O)c1cc2c(cc1NC(=O)Nc1cccc(Cl)c1)OCCO2	-6.3	i	-10.6	x	1.5	5.9	46.6	0.2
CC1CCN(CC(=O)Nc2ccc(C(=O)N3CCCCC3)cc2)CC1	13.7	i	-2.7	3.4	2.4	2.2	4.9	13.2
NS(=O)(=O)c1ccc(N=Nc2ccc(O)c3ncccc23)cc1	9.0	i	x	61.1*	24.6	-14.0	49.9	-9.7
O=C(NCCCn1ccnc1)/C(=C/c1ccco1)NC(=O)c1cccs1	-3.8	i	x	-9.3	1.6	2.5	-26.2	-8.2
Cc1cc(=O)oc2cc(NC(=O)c3ccc(OC(F)F)cc3)ccc12	-18.8	i	-6.3	-20.5	2.6	5.6	-3.1	-29.2
COc1ccc(OC)c(NC(=O)CSc2ncccc2C(=O)O)c1	-2.7	i	-2.9	x	1.2	3.1	-11.0	38.4
O=S(=O)(Nc1ccc(Nc2ccccc2)cc1)c1ccc(F)cc1	x	i	19.5	-3.7	x	x	x	x
CCOC(=O)c1sc(-c2ccc(OC)cc2)cc1NC(C)=O	2.4	i	x	-56.0	3.1	1.8	x	9.4
c1ccc2sc(N3CCN(Cc4nnnn4CC4CCCO4)CC3)nc2c1 (stereo not given)	-2.1	i	-18.3	x	-3.9	-3.2	-8.0	-6.9
CCN(C(=O)c1ccco1)c1nc(-c2ccc(OC)cc2)cs1	-6.5	i	-21.7	-64.5	2.8	-2.2	58.0	1.3
CCCCn1c(N)c(N(CC(C)C)C(=O)CSc2nnc(C)n2-c2ccccc2)c(=O)[nH]c1=O	x	x	9.4	4.5	-0.2	5.8	x	x
Cc1noc(C)c1COC(=O)c1cccc(S(=O)(=O)N2CCCCCC2)c1	-5.2	x	-6.9	x	1.2	-14.1	12.3	11.6
CCOC(=O)CNC(=O)CN1C(=O)CC(c2ccccc2)S(=O)(=O)c2ccccc21 (stereo not given)	-1.6	i	-19.6	1.0	-0.6	3.5	-2.1	-0.6
O=C(COC(=O)c1cc[n+]([O-])cc1)Nc1ccccc1Sc1ccccc1	2.6	i	-1.1	10.3	1.6	5.5	x	-2.7
COc1ccc(C2=NS(=O)(=O)N(C)C(C(=O)N3CCc4ccccc4C3)=C2)cc1OC	-13.9	i	7.7	23.3	-2.9	-27.4	-5.9	8.0
Cn1c(N)c(C#N)c(-c2ccccc2)c(C#N)c1=O	x	x	5.0&-11.9	-7.7	3.7	3.0	x	x
Cc1ccc(Sc2ccc(S(=O)(=O)Nc3ccc(CC(=O)O)cc3)cc2)cc1C	x	x	-1.2	-0.3	-6.1	-9.1	x	x
CCOc1ccc2[nH]c(=O)c(CN(CCCN3CCOCC3)Cc3nnnn3Cc3ccc(OC)cc3)cc2c1	-1.8	i	x	7.9	-6.4	-3.0	x	-1.5
CCCSc1nc(C)c(CC(=O)O)c(=O)[nH]1	-1.6	i	-14.0	x	0.7	1.4	-24.6	6.8
Cc1onc(-c2ccccc2)c1C(=O)N1CCN(S(=O)(=O)c2ccc3c(c2)OCCO3)CC1	-0.2	i	1.9	-49.1	-0.4	2.6	-2.0	-1.2
O=C(CSc1nnc(CNC(=O)c2ccco2)o1)Nc1ccc(Br)cc1	-1.1	i	-10.8	-1.7	1.1	5.4	-10.8	-4.7
CC(C)c1ccc(N2C(=NC(=O)C3CCCO3)SC3CS(=O)(=O)CC32)cc1 (stereo not given)	x	i	0.5	6.0	3.0	2.4	-1.7	x
CC(C)Cn1ccc(=O)n(CC(C)C)c1=O	-14.8	i	-16.0	x	-5.1	1.0	12.5	5.4
CCNc1nc(Oc2ccc(=O)[nH]n2)nc(SC)n1	6.1	i	-24.1	-59.5	1.4	0.8	-6.7	-1.0
CC(C(=O)Nc1ccc(Cl)cc1Cl)N1C(=O)NC2(CCCC2)C1=O (stereo not given)	-14.6	i	-9.2	-4.5	2.2	3.8	2.3	4.9
CCOC(=O)C1(Cc2ccccc2)CCN(Cc2cnn(CC)c2)CC1	-8.0	i	-8.8	6.4	0.7	4.4	27.5	-2.8
Cc1ccccc1CNC(=O)C1CCN(c2nnc(N3CCCC3=O)s2)CC1	-2.1	i	-12.2	x	1.9	2.2	0.5	2.0
C/C(=N\NC(=S)NC(C)C)c1ccc(-n2ccnc2)cc1	-0.8	i	97.5	x	-2.0	1.6	-7.8	-3.2
Cc1ccc(S(=O)(=O)N2CCC[C@H]2C(=O)OCC(=O)N2c3ccccc3NC(=O)C2(C)C)cc1	x	x	-6.3	3.4	-2.5	1.1	x	x
COc1ccc(CC(=O)NNC(=S)Nc2ccccc2)cc1Br	18.1	i	-31.9	x	-0.9	-1.7	5.2	3.3
Cc1c(C)c2ccc(OCC(=O)Nc3cccnc3)cc2oc1=O	-2.0	i	0.2	-13.6	5.8	-4.3	-3.7	5.1
CCOC(=O)/C(C#N)=C\c1cc(C)n(-c2ccccc2)c1C	-13.0	i	-50.5	i	0.3	-3.0	-3.1	-3.5
COc1ccc(CC(=O)N(C)c2ccccc2)cc1S(=O)(=O)N1CCOCC1	x	x	8.4	-0.2	-1.9	-2.1	x	x
C=CCN(C(=O)CNC(=O)c1ccco1)C(C(=O)NC1CCCCC1)c1ccc(OC)cc1 (stereo not given)	-5.9	i	-0.9	1.9	12.8	6.9	3.7	7.4
Cc1ccc(C2C3=C(CCCC3=O)N=C3c4ccccc4C(=O)C32)cc1 (stereo not given)	7.1	i	1.3	-1.3	2.8	-4.0	7.8	2.5
CCOC(=O)c1sc(NC(=O)CN2C(=O)NC3(CCCCCCC3)C2=O)c(C(=O)OCC)c1C	7.6	i	-2.3	14.1	1.7	2.8	-0.8	4.1
COCCNc1nc(SCC(=O)N2CCN(c3ccccc3)CC2)nc2ccccc12	-6.8	i	-40.8	x	5.5	0.9	-8.9	-0.2
OC1CC2CCC(C1)N2CCCN1c2ccccc2Sc2ccc(Cl)cc21 (stereo not given)	x	x	4.5	-25.4	-2.2	-11.6	x	x
CCOC(=O)c1c(NC(=O)COc2cccc3c2CCN(C)C3=O)sc2c1CCC2	6.5	i	x	19.6	-9.5	-17.5	21.6	-7.9
CC(C)(C)CC(=O)Nc1ccc(C(N)=O)cc1	3.1	i	6.0	-143.9	-1.9	1.5	-5.1	-2.9
COc1ccccc1/C=N/N1C(=O)c2cccc3cccc(c23)C1=O	u	i	-16.1	-4.5	-4.2	-5.3	-4.7	-6.4
COc1ccc(Cc2c(-c3cccc(Br)c3)nc3ccc(Br)cn23)c(C)c1	x	x	-6.0	-69.0	-5.1	0.6	x	x
COc1ccc(NC(=O)C2CCCC2)cn1	-0.8	i	x	2.3	4.1	-0.4	x	-5.2
CCOC(=O)CCC(=O)NNC(=O)c1ccc(NC(=O)c2ccccc2)cc1	-10.3	i	x	5.6	4.0	0.7	3.9	7.3
Nc1c(Cl)cnn(-c2ccccc2)c1=O	x	i	-17.6	4.1	4.4	4.5	-7.2	x
CC(=O)NC(CCS(C)(=O)=O)C(=O)Nc1ccc2c(c1)OCCO2 (stereo not given)	0.5	i	-13.3	x	3.8	-1.7	-14.3	92.7	eIF4H inh retest=-5.1;PABP FP inh retest=5.9
COc1ccc(/C=C(\NC(=O)c2ccccc2Cl)C(=O)NCCCC(=O)O)cc1	-4.8	i	x	-4.8	1.7	3.6	x	10.2
CCNc1nc(NCC)nc(NC(N)=S)n1	6.4	i	-10.4	-55.7	0.1	0.3	-2.0	1.9
Cc1cc(C(=O)O)cc(Br)c1N	4.8	i	x	-1.8	-3.0	-1.9	-7.5	12.4
C[C@@H]1CN([C@H](C)CO)C(=O)c2cc(NS(=O)(=O)c3cccs3)ccc2O[C@H]1CN(C)Cc1ccccc1	x	x	-16.3&6.5	-22.9	-0.9	1.2	x	x

Pulled one by one from the entries so far, 5 records:
SMILES	eIF4H inh	Rce1 inhib	Yeast UUG start	Env fusion inh	MT1-MMP act inh	MT1-MMP act inh RFP	CSC inhib	PABP FP inh	others
CC(C)(C)CC(=O)Nc1ccc(C(N)=O)cc1	3.1	i	6.0	-143.9	-1.9	1.5	-5.1	-2.9
C[C@@H]1CN([C@H](C)CO)C(=O)c2cc(NS(=O)(=O)c3cccs3)ccc2O[C@H]1CN(C)Cc1ccccc1	x	x	-16.3&6.5	-22.9	-0.9	1.2	x	x
OC1CC2CCC(C1)N2CCCN1c2ccccc2Sc2ccc(Cl)cc21 (stereo not given)	x	x	4.5	-25.4	-2.2	-11.6	x	x
COCCNc1nc(SCC(=O)N2CCN(c3ccccc3)CC2)nc2ccccc12	-6.8	i	-40.8	x	5.5	0.9	-8.9	-0.2
Nc1c(Cl)cnn(-c2ccccc2)c1=O	x	i	-17.6	4.1	4.4	4.5	-7.2	x
